ERp5 block: inhibitors of ERp5-driven insulin aggregation, primary screen, biochemical, turbidity, absorbance 650 nm, single point; 90 min; Protein disulfide-isomerase A6 (Homo sapiens), Q15084; inhibition, % at 9.99 µM; actives 0.05% (n = 350,000);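 active = mean replicate inhibition above about 25%, with every replicate also reaching it, limit read from the data, passing the limit was not always enough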
Target sequence (Q15084 whole entry, looked up): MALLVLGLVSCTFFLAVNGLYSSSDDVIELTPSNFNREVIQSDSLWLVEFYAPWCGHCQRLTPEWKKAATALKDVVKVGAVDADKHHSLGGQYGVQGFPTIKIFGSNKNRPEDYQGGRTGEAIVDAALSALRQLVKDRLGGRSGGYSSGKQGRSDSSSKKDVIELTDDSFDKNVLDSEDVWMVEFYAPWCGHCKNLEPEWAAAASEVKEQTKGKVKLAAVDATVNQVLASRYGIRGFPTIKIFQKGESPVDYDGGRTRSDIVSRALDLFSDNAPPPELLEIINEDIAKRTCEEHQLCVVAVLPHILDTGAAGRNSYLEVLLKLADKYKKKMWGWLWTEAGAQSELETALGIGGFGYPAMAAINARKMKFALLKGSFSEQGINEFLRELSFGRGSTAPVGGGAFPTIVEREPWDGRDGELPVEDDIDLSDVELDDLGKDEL
esBAF inh: Bmi1 luciferase reporter increase in mESCs, primary screen, esBAF inhibitor project, mouse ES cells, Bmi1 luciferase knock-in, single point; 24 h; 100% = twice the neutral-well signal; actives 2% (n = 350,000); reporter increase, % at 12.5 µM; in the data active = activation above about 40%;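 also: 0% = median of the plate's neutral control wells and 100% = double that signal; a rise in the Bmi1 reporter signal indicates esBAF inhibition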
miR122 inh: miR-122 Renilla sensor signal increase in Huh7, primary screen, miR-122 inhibitor project, cell-based, single point, plate reader; Huh7 miR-122 Renilla luciferase sensor, 48 h; neutral wells = 0, positive control = 100; activation (reporter increase), % at 12.5 µM; AID 602342, 2012; actives 0.3% (n = 340,000);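 active = mean replicate activation score at least 90 and every replicate individually at or above 90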;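 also: higher luciferase means less miR-122 activity so hits act as miR-122 inhibitors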
Cneo AK release: Cryptococcus neoformans cell lysis inducers, primary screen, AK release luminescence, single concentration; C. neoformans lysis, adenylate kinase release luminescence, 4 h; normalised: neutral wells 0, clomiphene wells 100; lysis activity, % at 15 µM; actives 0.2% (n = 360,000);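 active = mean lysis activity across replicates of at least 80%, whatever share of replicates individually reach that level; inactive = mean lysis activity below 80%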
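Assay system: Cryptococcus neoformans yeast cells / Dosing: single-point compound dose / Timing: 4 h at 37 °C static, read 1 h later / Measured by: luminescence of released adenylate kinase using an AK detection reagent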
SIRT5 inh: SIRT5 desuccinylase inhibitors, primary screen, biochemical, fluorescence imaging, single point, set 5; Purified SirT5, succinyl-peptide AMC, trypsin-coupled fluorescence; AID 652115, 2013; inhibition, % at 15 µM; actives 1.1% (n = 330,000); NAD-dependent protein deacylase sirtuin-5, mitochondrial (Homo sapiens), Q9NXA8; in the data active = inhibition above about 15%
Target sequence (Q9NXA8 whole entry, looked up): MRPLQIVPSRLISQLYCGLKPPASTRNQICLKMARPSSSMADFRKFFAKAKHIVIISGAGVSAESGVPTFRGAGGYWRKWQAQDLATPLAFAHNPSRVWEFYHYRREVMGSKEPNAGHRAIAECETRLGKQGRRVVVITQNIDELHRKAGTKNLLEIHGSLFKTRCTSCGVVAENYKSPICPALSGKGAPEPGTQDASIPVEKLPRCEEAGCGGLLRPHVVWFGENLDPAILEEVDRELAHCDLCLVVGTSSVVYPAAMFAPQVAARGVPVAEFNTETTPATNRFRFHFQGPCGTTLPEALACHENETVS
Statin myotox sup: suppressors of statin myotoxicity in C2C12 myotubes, primary screen, cell-based, single point, plate reader | C2C12 myotubes + simvastatin, ATP luminescence, 48 h; scaled: DMSO 0, geranylgeraniol control 100 | rescue of ATP level, % at 7.49 µM | actives 0.78% (n = 330,000) | AID 602340, 2012;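 active = mean ATP rescue above about 67%, or every replicate alone reaching that limit, limit read from the data, passing the limit was not always enough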;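 also: myotubes were challenged with 10 µM simvastatin during compound exposure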
Numbers without * were called inactive; · = not tested or not shown; [ ] = another dose, or the depositor's remark. An excerpt (hit frequency here may not be typical).

Codes – A = ERp5 block; B = esBAF inh; C = miR122 inh; D = Cneo AK release; E = SIRT5 inh; F = Statin myotox sup
CCS(=O)(=O)n1c(Cc2cccs2)nc2ccccc21
  A: -2	B: 15	C: 5	D: -1	E: -16	F: 1
COc1cccc(C(=O)NCCS(=O)(=O)N2CC(C)CC(C)C2)c1 (stereo not given)
  A: -5	B: -1	C: 1	D: -2	E: -4	F: -5
C[N+]1(C)CC[C@H](OC(=O)[C@@](O)(c2ccccc2)C2CCCC2)C1
  A: 1	B: -3	C: -2	D: -3	E: -2	F: 6
O=C(NC1CCCCC1)C(c1ccc(F)cc1)N(Cc1ccc2c(c1)OCO2)C(=O)c1cnsn1 (stereo not given)
  A: ·	B: -3	C: -6	D: 0	E: ·	F: ·
O=c1cc(O)n(C2CCCCCC2)c(=O)[nH]1
  A: 0	B: -6	C: 3	D: 2	E: -3	F: 1
C[C@H](CO)N1C[C@H](C)[C@@H](CN(C)S(=O)(=O)c2ccc(F)cc2)Oc2ccc(NS(C)(=O)=O)cc2C1=O
  A: -3	B: 1	C: 14[16.7 µM]	D: -3	E: ·	F: -30
CCOc1ccc(NC(=O)c2cnsn2)cc1
  A: ·	B: -47	C: 8	D: -1	E: ·	F: -1
C=CCNc1nc2c3ccccc3n(C(C)=O)c2s1
  A: ·	B: 23	C: 15	D: 4	E: ·	F: 8
C[C@H]1CN([C@@H](C)CO)C(=O)c2cccc(NC(=O)c3ccncc3)c2O[C@H]1CN(C)S(=O)(=O)c1cccs1
  A: 2	B: 2	C: -3[16.7 µM]	D: -4	E: 2	F: -23
O=C(NC1Cc2ccccc2C1)[C@@H]1N[C@@H]2c3cccc(=O)n3C[C@@H]2[C@H]1CO
  A: -7	B: -3	C: ·	D: -1	E: -6	F: 11
CCN(CC)S(=O)(=O)c1cccc(C(=O)N/N=C/c2ccccn2)c1
  A: -10	B: ·	C: ·	D: ·	E: 0	F: ·
C/C(=N\NC(=O)c1ccccc1O)c1c(O)cc(C)oc1=O
  A: ·	B: 10	C: 50	D: -6	E: ·	F: 27
CN(Cc1cc(=O)n2ccsc2n1)c1ccccc1
  A: -2	B: ·	C: ·	D: ·	E: 0	F: ·
C[C@@H]1CCCCO[C@@H](CN(C)S(=O)(=O)c2cccs2)[C@H](C)CN([C@@H](C)CO)C(=O)c2cc(NS(C)(=O)=O)ccc2O1
  A: -20	B: 1	C: 2[16.7 µM]	D: 0	E: 2	F: 17
COc1ccc(NC(=O)c2c(Cl)cnn2C)c(C)c1
  A: -3	B: ·	C: ·	D: ·	E: -6	F: ·

Looked up above:
Under miR122 inh, `C[C@H](CO)N1C[C@H](C)[C@@H](CN(C)S(=O)(=O)c2ccc(F)cc2)Oc2ccc(NS(C)(=O)=O)cc2C1=O` has 14[16.7 µM]
Under ERp5 block, `CN(Cc1cc(=O)n2ccsc2n1)c1ccccc1` has -2
Under ERp5 block, `CCN(CC)S(=O)(=O)c1cccc(C(=O)N/N=C/c2ccccn2)c1` has -10
Under ERp5 block, `COc1ccc(NC(=O)c2c(Cl)cnn2C)c(C)c1` has -3

Additional structures.
Codes – A = ERp5 block; B = esBAF inh; C = miR122 inh; D = Cneo AK release; E = SIRT5 inh; F = Statin myotox sup
COc1ccc(/C=C2\CCCc3c2nc2ccc(C)cc2c3C(=O)O)cc1O
  A: 0	B: -2	C: -24	D: -3	E: 1	F: 25
O=C1C=C(NNC(=O)c2cccnc2)CC(c2ccco2)C1 (stereo not given)
  A: -1	B: ·	C: ·	D: ·	E: 4	F: ·
C[C@@H]1CN([C@H](C)CO)C(=O)c2cc(NS(C)(=O)=O)ccc2O[C@@H]1CN(C)S(=O)(=O)c1ccc(F)cc1
  A: -6	B: -7	C: 33[16.7 µM]	D: -4	E: 0	F: -19
COc1ccccc1-c1n[nH]c(=S)n1Cc1ccccc1
  A: -1	B: -9	C: ·	D: 0	E: -7	F: -6
N#CC(c1ccccc1)(c1ncc(C(F)(F)F)cc1Cl)N1CCOCC1 (stereo not given)
  A: ·	B: -1	C: 3	D: -4	E: ·	F: -20
COc1ccc(/C=C/C(=O)NC(=S)N2CCCC(C(N)=O)C2)cc1 (stereo not given)
  A: 7	B: -4	C: -6	D: -5	E: -2	F: -16
CCOC(=O)c1c(-c2ccccc2)nnn1-c1nc(OCC)nc(N2CCCCC2)n1
  A: ·	B: -6	C: -2	D: -4	E: ·	F: 5
CCOC(=O)N1CCN(C(=O)c2ccc3c(c2)NC(=O)/C(=C/c2ccccc2)S3)CC1
  A: 0	B: -2	C: -7	D: -2	E: 2	F: 8
Cc1ccc(C(=O)N/N=C\c2sccc2C)cn1
  A: 4	B: ·	C: ·	D: ·	E: 1	F: ·
Cc1nnc2ccc(-c3cccc(NC(=O)c4ccco4)c3)nn12
  A: 9	B: -5	C: 0	D: -3	E: -2	F: 5
NC(=O)CSc1nnc(-c2ccc([N+](=O)[O-])cc2)o1
  A: -1	B: ·	C: ·	D: ·	E: -1	F: ·
CCS(=O)(=O)C(C)(CCl)C(=O)Nc1ccc(C(=O)OC)cc1 (stereo not given)
  A: 3	B: 0	C: 9	D: -4	E: -1	F: 5
CS(=O)(=O)N(Cc1ccccc1Cl)c1ccc(C(=O)NCc2ccccn2)cc1
  A: -8	B: ·	C: ·	D: ·	E: -5	F: ·
C[C@@H]1CCCCO[C@H](CN(C)C(=O)NC2CCCCC2)[C@@H](C)CN([C@H](C)CO)C(=O)c2cc(NC(=O)C3CCCCC3)ccc2O1
  A: 2	B: -4	C: 5[16.7 µM]	D: 2	E: 9	F: -60
Cc1ccc(OCc2nnc(SCC(=O)Nc3cc(C)on3)n2C)cc1
  A: ·	B: -6	C: 2	D: ·	E: ·	F: -6
O=C(Nc1cccc2ccccc12)c1ccccc1NS(=O)(=O)c1cccc2cccnc12
  A: -3	B: 0	C: -5	D: 0	E: ·	F: 4
Cc1ccccc1NC(=O)C1CC(Cl)=CCC1C(=O)O (stereo not given)
  A: ·	B: -9	C: -12	D: 5	E: ·	F: 0
CN(C)CCOC(c1ccccc1)c1ccccc1 (tested in a mixture with another compound)
  A: 4	B: 3	C: 2	D: 0	E: -5	F: 0
O=C(Nc1ccc2oc(=O)ccc2c1)c1ccco1
  A: ·	B: 39	C: -3	D: -2	E: ·	F: 10
CC(C)NC(=O)N1[C@H](CO)[C@H]2c3ccccc3NC[C@H]21
  A: -2	B: -6	C: 9[16.7 µM]	D: 3	E: 3	F: -5
CCC1CCCCN1CCCNC(=O)CCCNC(=O)Cn1cnc2sc3c(c2c1=O)CCCC3 (stereo not given)
  A: -2	B: ·	C: ·	D: ·	E: -6	F: ·
O=C(/C=C/c1cccc([N+](=O)[O-])c1)N1CCN(C(=O)c2ccco2)CC1
  A: ·	B: -1	C: -4	D: -2	E: ·	F: -9
COc1cc(C(=O)OCCC(C)C)cc(OC)c1O
  A: 1	B: 7	C: -3	D: -4	E: 0	F: -5
O=C(Nc1nnc(-c2cccs2)o1)c1cccc(F)c1
  A: -2	B: 36	C: -3	D: 1	E: ·	F: -11
O=C(Nc1ccccc1Oc1ccccc1)c1cccc([N+](=O)[O-])c1
  A: ·	B: -34	C: 4	D: -2	E: ·	F: 2
O=C(O)/C=C/c1cn(Cc2ccccc2)nc1-c1cccnc1
  A: 6	B: ·	C: ·	D: ·	E: -1	F: ·
COC(=O)c1ccc(OC(=O)c2nn(C)cc2Cl)c(OC)c1
  A: ·	B: -4	C: 4	D: -5	E: ·	F: -3
C[C@H](CO)N1C[C@H](C)[C@@H](CN(C)C(=O)c2ccccc2F)Oc2ncc(-c3cncnc3)cc2C1=O
  A: -5	B: -1	C: -8[16.7 µM]	D: 0	E: 2	F: 4
CC(C)NC(=O)Nc1ccc2c(c1)CC(=O)N([C@H](C)CO)C[C@@H](C)[C@H](CN(C)Cc1ccc(Oc3ccccc3)cc1)O2
  A: 2	B: -2	C: 4[16.7 µM]	D: -2	E: 1	F: 34
COc1ccc(C(=O)Nc2ccccc2C(=O)N/N=C/c2ccco2)cc1
  A: -4	B: ·	C: ·	D: ·	E: -4	F: ·

2 neighbouring records from above, for reference:
Codes – A = ERp5 block; B = esBAF inh; C = miR122 inh; D = Cneo AK release; E = SIRT5 inh; F = Statin myotox sup
O=C(Nc1nnc(-c2cccs2)o1)c1cccc(F)c1
  A: -2	B: 36	C: -3	D: 1	E: ·	F: -11
O=C(Nc1ccccc1Oc1ccccc1)c1cccc([N+](=O)[O-])c1
  A: ·	B: -34	C: 4	D: -2	E: ·	F: 2

Carrying on.
Codes – A = ERp5 block; B = esBAF inh; C = miR122 inh; D = Cneo AK release; E = SIRT5 inh; F = Statin myotox sup
CCOC(=O)/C(C#N)=C/Nc1cc(OC)ccc1OC
  A: 1	B: ·	C: ·	D: ·	E: -15	F: ·
CN1c2ccccc2Oc2c(c(=O)n(C)c(=O)n2C)C1c1cccc([N+](=O)[O-])c1 (stereo not given)
  A: ·	B: -11	C: -5	D: -3	E: ·	F: 18
COc1ccc(-c2cnnn2-c2ccc(NC(=O)c3ccco3)cc2)cc1OC
  A: ·	B: -7	C: 0	D: 7	E: ·	F: ·
Cc1cc2cc(C#N)c(NCCNC(=S)NCCCN3CCOCC3)nc2cc1C
  A: 3	B: ·	C: ·	D: ·	E: -5	F: ·
CCCCCCCC(=O)N/N=C(/C)c1c(O)cc(C)oc1=O
  A: 0	B: -2	C: -3	D: 0	E: -2	F: -27
CN(C)CCCN(C(=O)c1ccc([N+](=O)[O-])s1)c1nc2cc3c(cc2s1)OCCO3
  A: -5	B: -62	C: -1	D: 8	E: -1	F: 6
O=C(CSc1ccc(-c2ccco2)nn1)N1CCCC1
  A: -5	B: -1	C: -2	D: 0	E: 7	F: 2
C[C@@H]1CN([C@H](C)CO)C(=O)c2cc(NS(C)(=O)=O)ccc2O[C@@H](C)CCCCO[C@@H]1CN(C)S(=O)(=O)c1cccs1
  A: -12	B: -4	C: 7[16.7 µM]	D: 1	E: -1	F: -72
Nc1nc2c(ncn2COCCO)c(=O)[nH]1
  A: 2	B: -7	C: -3	D: -2	E: 4	F: 3
C/C(CC(=O)NC1CCCCC1)=N\NC(=O)COc1ccc(C)cc1Br
  A: 1	B: ·	C: ·	D: ·	E: 0	F: ·
Cc1cc(-c2csc(NC(=O)c3ccc(=O)[nH]c3)n2)c(C)n1Cc1ccco1
  A: 5	B: -10	C: -4	D: ·	E: 1	F: 2
COc1ccc2cc([C@H](C)C(=O)O)ccc2c1
  A: 6	B: 3	C: -3	D: 3	E: -2	F: 4
CC(=O)c1cc(-c2ccccc2)n(CC(=O)N2CCN(C3CCCC3)CC2)c1C
  A: ·	B: 4	C: -5	D: 1	E: ·	F: 7
COc1cccc(-c2ccc3c(c2)[C@H]2[C@H](CCN2S(=O)(=O)c2cn(C)cn2)[C@H](CO)N3)c1
  A: 0	B: -2	C: 1[16.7 µM]	D: 9	E: 2	F: -14
CC(C)c1ccc(-c2c(NCCc3ccccc3)c(=O)c2=O)cc1
  A: 1	B: 2	C: ·	D: 11	E: 2	F: -10
N#Cc1cn(CC(=O)N2CCCC2)c2ccccc12
  A: ·	B: -8	C: 7	D: 0	E: ·	F: -11
COc1cc2c(cc1OC)CN(C(=O)Cc1ccccc1)CC2
  A: 2	B: 5	C: -2	D: 0	E: -6	F: -9
O=c1cc(NC2CCCCC2)c2ccccc2o1
  A: ·	B: 11	C: -2	D: 0	E: ·	F: -5
Cc1cc(C)c2c(CC(=O)Nc3ccc(Cl)cn3)coc2c1
  A: ·	B: -4	C: 11	D: 1	E: ·	F: -36
COc1cc2c(cc1OC)CN(C(=O)CNC(=O)c1ccc(OC(F)F)cc1)CC2
  A: 0	B: ·	C: ·	D: 0	E: 4	F: ·
O=C(/C=C/NNC(=O)c1ccccc1)c1ccc([N+](=O)[O-])cc1
  A: -2	B: -4	C: ·	D: -1	E: 5	F: 12
CCCNC(=O)C1(S(=O)(=O)c2ccccc2)CC=CC1
  A: -1	B: 0	C: -4	D: -1	E: ·	F: -1
COc1ccc(S(=O)(=O)c2c(O)c3ccc(C(=O)Nc4ccccc4F)cc3[nH]c2=O)cc1
  A: 3	B: -3	C: -4	D: -1	E: 3	F: 7
COc1ccc(NC(=O)N2C[C@H]3[C@@H](c4ccccc42)[C@H](CO)N3Cc2ccccn2)cc1
  A: -2	B: 11	C: 4[16.7 µM]	D: -1	E: 0	F: -1
Cc1cccc(C(=O)NN/C=C/C(=O)c2ccccc2)c1
  A: 0	B: -3	C: 1	D: 2	E: -2	F: 2
COc1ccc(CNC(=O)c2onc(C)c2Cl)cc1
  A: -6	B: -10	C: 0	D: 6	E: 12	F: -5
